NPYLR7 agonist: agonists of mosquito NPYLR7 receptor, primary screen, cell-based, Aedes aegypti, calcium fluorescence, mosquito biting behavior; Aedes aegypti neuropeptide Y-like receptor 7 (NPYLR7); HEK293T NPYLR7/Galpha15, GCaMP6s calcium fluorescence; activation, % at 10 µM; hit rate 0.15% among 270,000; in the data active means activation above about 40%;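 further: 0% = vehicle and 100% = reference agonist at the receptor; some compounds past the cut are filed as inactive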
NPYLR7 agonist max-min: further read-out of NPYLR7 agonist, marked with its call; activation, %; measured here: Max-Min RFU normalised activation; some inactives read as strong as hits;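 span of the calcium signal over five minutes; 0% = vehicle and 100% = native peptide agonist; compound fluorescence can raise it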
* hit, by the source's call; & = joins results of further samples. Not all compounds are listed; the hit share may differ from the screen's.

SMILES	NPYLR7 agonist	NPYLR7 agonist max-min
COCOc1cccc(CN2CCC2(C)C(=O)Nc2cccc(Br)c2C)c1 (stereo not drawn)	8	0
CCCN1CCN(c2nc3c(c(=O)[nH]c(=O)n3C)n2Cc2ccc(Cl)cc2Cl)CC1	1	28
CCN(C(=O)c1cc(C)oc1-c1ccccc1)C(C)CO (stereo not drawn)	5	5
Cn1ccnc1C(NC(=O)C1CCN(S(=O)(=O)c2ccccc2)CC1)c1ccccc1F (stereo not drawn)	5	10
CC1(C)CC(n2c(=S)[nH]c3c(c2=O)C2(CCCC2)Cc2ccccc2-3)CCO1 (stereo not drawn)	-2	4
COc1cc(=O)n(C)c2c(OCC3OC(C)(C)OC3(C)C)cccc12 (stereo not drawn)	7	6
COc1cccc(NC(=O)N2CCc3nc(Nc4ccc(C(C)C)cc4)ncc3C2)c1	-3	-6
CC(c1ccc(-c2ncnc3[nH]ccc23)cc1)N1CCOCC1 (stereo not drawn)	5	3
Cc1ccc(CN(C)C(=O)Cn2cnnc2C#N)o1	2	7
COCc1cc(C)nc(OCC(=O)N/N=C\c2ccc(OC)cc2)c1C#N	5	-2
CSc1ccc(CN2CCC2(C)C(=O)Nc2ccc(Cl)c(Cl)c2)cc1 (stereo not drawn)	4	1
Cc1ccccc1S(=O)(=O)Nc1nc2ccccc2nc1N1CCN(CC(=O)NCC(C)C)CC1	20	10
O=S(=O)(N1CCOCC1)N1CCOC(CCc2ccccc2)C1 (stereo not drawn)	2	-2
CC(C)C(C)NC(=O)Nc1nc(-c2ccccc2)ns1 (stereo not drawn)	-21	-21
Cn1nnnc1-c1cccc(NCC(=O)NC2CCOc3ccccc32)c1 (stereo not drawn)	6	2
COc1cccc(-c2nc(CN(C)CC3COc4ccccc4O3)c(C)o2)c1OC (stereo not drawn)	2	0
O=C(NCCc1cccnc1)C1CCCCC1C(=O)N1CCc2c([nH]c3ccccc23)C1 (stereo not drawn)	-12	-18
O=C1CSC(c2ccccc2)N1c1cccc(F)c1 (stereo not drawn)	-10	-12
CCOC(=O)Cn1c(=O)c2c(nc3n2CC(C)CN3c2ccc(Oc3ccccc3)cc2)n(C)c1=O (stereo not drawn)	6	3
CCN1CCc2nc(NC(=O)CCc3cccc(F)c3)sc2C1	2	1
COc1ccc(NC(=O)N2CCCCC2CCN2CCOCC2)c(C)c1 (stereo not drawn)	10	6
Cc1ccc(Nc2nnc(-c3cc4c(ccc5ccccc54)oc3=O)s2)cc1	-4	-10
O=S(=O)(c1cccc(C(F)(F)F)c1)N1CC(c2ccncc2)C1	0	10
Cc1cccc(-n2nc3c(c2NC(=O)c2ccc(C)c(C)c2)CSC3)c1	0	1
CCc1ccc(NC(=O)CSc2nc(N)c(NC(=O)c3ccc(F)c(F)c3)c(=O)[nH]2)cc1	-1	-2

Remaining list, next part:
SMILES	NPYLR7 agonist	NPYLR7 agonist max-min
CC(C)NCC(O)COC1CCC(C(C)(C)C)CC1 (stereo not drawn)	6	2
NC(=O)CO[C@@H]1CO[C@H]2[C@@H]1OC[C@@H]2NS(=O)(=O)c1cccs1	-4	-13
Cc1cc(C)cc(-n2c(SCC(=O)N3CCOCC3)nc3c([nH]c4ccccc43)c2=O)c1	1	50
CCCC(=O)NC(N(C)Cc1ccccc1)C(Cl)(Cl)Cl (stereo not drawn)	-12	-10
CC(C)CCCC(C)C1CCC2C3CC(=O)[C@H]4C[C@@H](O)CC[C@]4(C)C3CC[C@]12C (stereo partly drawn)	-7	-11
CC(C)C(C)NC(=O)C1CCN(c2nc3ccccc3s2)CC1 (stereo not drawn)	5	2
CCC(C)NC(=O)C1CSCN1C(=O)CSc1ccc2c(c1)CCC2 (stereo not drawn)	16	14
COCCNC(=O)c1ccc(Cn2c(=O)n(-c3ccc(C)c(C)c3)c(=O)c3ccccc32)cc1	-7	-3
Cc1cccc(C(O)c2nnc(Nc3cccc(C(F)(F)F)c3)s2)c1 (stereo not drawn)	0	-1
CN(c1ccccc1)S(=O)(=O)c1cccc(NS(=O)(=O)c2cc(Cl)ccc2Cl)c1	-10	-16
c1ccc(-n2ncc3c(NCCCN4CCOCC4)ncnc32)cc1	-1	-1
Oc1cccc(-c2nnco2)c1	8	11
O=C(Nc1nc2c(s1)COCC2)N1CCCC(c2ncc[nH]2)C1 (stereo not drawn)	1	-4
Cc1sc2ncnc(N/N=C\c3ccccc3)c2c1C	9	6
COc1cc(/C=C2/C(=O)N(c3cccc(Br)c3)N=C2C)cc(OC)c1O	-1	-14
CCOc1ccc(NC(=O)N2CCCN(c3nc(Cc4ccc(F)cc4)ns3)CC2)cc1	-10	-14
COC1CCC(C(=O)N2CCC(S(=O)(=O)c3ccccc3)CC2)CC1 (stereo not drawn)	0	5
CC(=O)Nc1ccc(/C=N\NC(=O)C(NC(=O)c2ccccc2)c2n[nH]c(=O)c3ccccc23)cc1 (stereo not drawn)	-6	-11
CSc1nnc(C)c(=O)n1COC(=O)COc1ccc(F)cc1	-4	-4
COc1ccccc1C(=O)NNC(=O)c1cc2cc(Cl)ccc2oc1=O	5	0
CN(Cc1ccc(Cl)cc1Cl)C(=O)CNC(=O)Nc1ccccc1	-2	0
O=[N+]([O-])c1ccc2c(c1)N=C(NNc1ccccn1)CO2	1	0
CCOC(=O)c1c(C)[nH]c(C(=O)C(C)OC(=O)c2ccccn2)c1C (stereo not drawn)	4	-1
CN(Cc1nc2ccccc2o1)C(=O)C1CCC(=O)N(CCN2CCOCC2)C1 (stereo not drawn)	3	-1
CCSc1nc2sc3c(c2c(=O)n1CC1CCCO1)CCC3 (stereo not drawn)	1	2

The list goes on:
SMILES	NPYLR7 agonist	NPYLR7 agonist max-min
CCOC(=O)CSC(C)c1nnc(-c2ccccc2)o1 (stereo not drawn)	8	7
CC(C)(C)c1ccc(CC2CCN(C(=O)CCCl)CC2)cc1	1	5
N#Cc1c(N)n(-c2cccc(Br)c2)c2nc3ccccc3nc12	1	-1
O=C(NCc1ccccn1)C1COC2(CCN(C(=O)Cc3ccccc3)CC2)N1C(=O)c1ccc(F)cc1 (stereo not drawn)	3	19
CCOC(=O)c1nn(-c2ccccc2)c(=O)c2c(NC(=O)c3ccc(C)cc3)scc12	-4	-5
Cc1cc(S(=O)(=O)N2CCN(c3c(-c4ccccc4)cnc4ncnn34)CC2)c(C)cc1Cl	19	14
COc1cccc(Cc2nsc(N3CCC(CNC(=O)C(C)(C)CCl)CC3)n2)c1	-11	-15
Cn1c2ccccc2n2c(-c3ccccc3)c(O)c(C#N)c12	-2	0
CC(C)CCNC(=O)C1(C)CCN1Cc1ccc(-c2ccccn2)cc1 (stereo not drawn)	-1	-2
Cc1cc2ccccc2n1CC(=O)NCC(C)N1CC(C)OC(C)C1 (stereo not drawn)	3	0
CC1Oc2ccccc2N(Cc2cccc(F)c2)C1=O (stereo not drawn)	-6	-6
Cc1ccc(C(=O)NCCN2C(=O)SC(=Cc3cccc(Cl)c3Cl)C2=O)o1	-8	-8
CCCCCCNC(=O)c1csc(CSc2nnc(-c3ccco3)n2-c2cc(Cl)ccc2Cl)n1	18	11
COc1cc(-c2nc3ccc(Br)cn3c2NC2CCCCC2)ccc1OC(=O)c1ccc(Br)cc1	15	18
CC=Cc1ccc(OCC(=O)Nc2sc3c(c2C#N)CCC3)c(OC)c1	1	7
c1ccc(-c2nnc(CSc3nnc(-c4cccnc4)n3C3CC3)o2)cc1	-1	9
Cc1cc(C)c(C(=O)N2CCOC(CCCc3ccccc3)C2)c(=O)[nH]1 (stereo not drawn)	17	17
Cc1sc(-n2cccc2)c(C(=O)NCC(=O)NCc2ccco2)c1C	-1	-2
COc1cc(-c2ccnc(N3CCN(C(=O)COCc4ccccc4)CC3)n2)cc(OC)c1OC	20	15
CC(Sc1nnc(-c2cccs2)o1)C(=O)NC1CCCCCC1 (stereo not drawn)	-8	-3
O/N=C(\C=N\O)c1ccccc1	-1	-3
COc1ccc(N2CCN(C(=O)Cc3ccccc3)C(C)C2=O)c(OC)c1 (stereo not drawn)	10	8
CC1CN(C)CCC1NS(=O)(=O)c1ccc(C2CCCCC2)cc1 (stereo not drawn)	9	6
CCCn1c(N)c(Br)c(=O)n(C)c1=O	13	11
COC(=O)c1c(N2C(=O)CCC2=O)sc2c1CCCC2	5	5

A second format for some results above.
SMILES: COc1cccc(Cc2nsc(N3CCC(CNC(=O)C(C)(C)CCl)CC3)n2)c1
  NPYLR7 agonist = -11 | NPYLR7 agonist max-min = -15

SMILES: Cc1ccc(C(=O)NCCN2C(=O)SC(=Cc3cccc(Cl)c3Cl)C2=O)o1
  NPYLR7 agonist = -8 | NPYLR7 agonist max-min = -8

SMILES: CC=Cc1ccc(OCC(=O)Nc2sc3c(c2C#N)CCC3)c(OC)c1
  NPYLR7 agonist = 1 | NPYLR7 agonist max-min = 7

SMILES: Cc1cc(S(=O)(=O)N2CCN(c3c(-c4ccccc4)cnc4ncnn34)CC2)c(C)cc1Cl
  NPYLR7 agonist = 19 | NPYLR7 agonist max-min = 14

One compound at a time (already shown).
`COc1ccc(N2CCN(C(=O)Cc3ccccc3)C(C)C2=O)c(OC)c1` (stereo not drawn) in the list: NPYLR7 agonist: 10; NPYLR7 agonist max-min: 8
`CCOC(=O)CSC(C)c1nnc(-c2ccccc2)o1` (stereo not drawn) in the list: NPYLR7 agonist: 8; NPYLR7 agonist max-min: 7
`Cc1cc(C)c(C(=O)N2CCOC(CCCc3ccccc3)C2)c(=O)[nH]1` (stereo not drawn) in the list: NPYLR7 agonist: 17; NPYLR7 agonist max-min: 17

The main list resumes with the two entries that preceded the break.
SMILES	NPYLR7 agonist	NPYLR7 agonist max-min
CCCn1c(N)c(Br)c(=O)n(C)c1=O	13	11
COC(=O)c1c(N2C(=O)CCC2=O)sc2c1CCCC2	5	5
O=C(NCc1nnc2n1CCC2)c1cccnc1Oc1ccccc1	-1	-2
O=c1[nH]c2ccc(S(=O)(=O)N3CCCC3)cc2[nH]c1=O	2	-2
CN(Cc1nc(-c2ccoc2)no1)C1CCCN(c2cccnn2)C1 (stereo not drawn)	7	-17
O=C(Nc1ccnn1Cc1ccc(Br)cc1)c1ccc(=O)[nH]c1	6	3
CC(C)(Cc1cccc(Cl)c1)C(=O)N1CCC2(C1)OCCO2	1	0
C=CCCC(O)CN(CCCOC)CC(=O)N(CCc1c[nH]c2ccccc12)Cc1ccc(C(C)(C)C)cc1 (stereo not drawn)	2	5
Cn1cnc(S(=O)(=O)N2CCCCC2c2cc(C(=O)Nc3cccc4c3CCCC4)no2)c1 (stereo not drawn)	4	2
CC(=O)Oc1cccc2nsnc12	5	3
CC(=O)Nc1ccc(S(=O)(=O)N2CCN(c3nc(-c4ccc(Cl)cc4)nc(C)c3Cc3ccccc3)CC2)cc1	20	28
O=C(Oc1cccc2cccnc12)c1cc(Cl)ccc1Cl	-11	-15
CC1(C)CC(=O)c2nc(-c3ccccc3)[nH]c2C1	-2	-6
COc1ccc(C2CC(=O)C=C(Nc3ccccc3C)C2)cc1OC (stereo not drawn)	-4	-4
CCOC(=O)N1CCN(C(=O)c2csc(CSc3nnc(-c4ccncc4)n3-c3ccccc3Cl)n2)CC1	-3	7
NC(=O)c1cc(Cl)ccc1OCc1ccccc1Br	0	0
CC(C)C(NC(=O)C1CCCCC1)C(=O)N1CCN(S(=O)(=O)c2ccc(F)cc2)CC1 (stereo not drawn)	-5	-5
Cc1ccnn1CCC(=O)N1CCCC(Nc2ccc(C(C)C)cc2)C1 (stereo not drawn)	7&0	4&-1
CCNC(=O)NC(=O)CSc1nc2ccc(OCC)cc2s1	2	1
NC(=O)c1cccc(COC(=O)C2(c3cccc(Cl)c3)CCOCC2)c1	-6	-6
CCc1cc(N2CCC(c3ccccc3)CC2)n2ncnc2n1	1	-6
CCn1c(C2CCN(c3ncnc4c(C)csc34)CC2)nn(C)c1=O	0	-1
N#Cc1ccc(CSCCCNc2ncccn2)cc1	-13	-13
COc1ccc(C(O)c2ncc(-c3ccccc3C)[nH]2)cc1 (stereo not drawn)	-2	-6
Cc1cc(CSc2ccccc2)ccc1NC(=O)c1ccccc1N(C)S(C)(=O)=O	8	11
CCCC1SCCN1C(=O)C(C)OCc1cccc(OC)c1 (stereo not drawn)	8	4
CC1Cc2cc(-n3cnnc3)ccc2O1 (stereo not drawn)	5	7

Following part
SMILES	NPYLR7 agonist	NPYLR7 agonist max-min
COc1ccc2nc(N3CCOCC3)[nH]c2c1	0	-3
CC(C)(C)C(=O)CCN1C(=O)C2(OCCO2)c2ccccc21	2	0
CCN(CC)C(=O)Oc1ccc2c(ccn2Cc2cc(C(F)(F)F)cc(Cl)c2F)c1-c1cc(C)cc(C)c1	5	8
CCN(CC)C(=O)CSc1ncc(CO)n1Cc1ccc(Cl)cc1	1	-2
CCCc1sc(C(=O)O)cc1CC	-4	-6
O=[N+]([O-])c1ccc(C=NNc2ccnc3cc(Cl)ccc23)o1	-5	-8
O=C(Nc1ccc(F)cc1F)N(CC(=O)N1c2ccccc2-n2cccc2C1c1ccc(F)cc1)C1CC1 (stereo not drawn)	2	2
O=C1CCCc2occ(C(=O)N(C/C=C/c3ccccc3)CCO)c21	3	5
O=C(NCc1ccc2c(c1)OCCCO2)C1CCCN(Cc2ccco2)C1 (stereo not drawn)	-2	-7
N#CC(C(=S)Nc1ccccc1F)c1nc2ccccc2s1 (stereo not drawn)	-1	-2
COc1cc(C)c(S(=O)(=O)Nc2ccc(-c3ccc(N4CCOCC4)nn3)cc2)cc1C	-6	-7
O=C(c1ccc(CSc2cccs2)cc1)N1C2CCC1CC(Oc1ccc(F)cc1F)C2 (stereo not drawn)	28	38
CC(C)OCCS(=O)(=O)c1nccn1-c1cccc(F)c1	10	8
COc1ccc(-c2cc(C(=O)N3CCN(Cc4ccccc4)CC3)n3nc(C(C)(C)C)cc3n2)cc1	-6	-2

Compound activity from PubChem.
